High-throughput results as filed in PubChem.
Vaccinia mCherry: qHTS for Stage-Specific Inhibitors of Vaccinia Orthopoxvirus: mCherry Reporter Primary qHTS; Vaccinia virus mCherry reporter infection, fluorescence; about a quarter of the inactives have no number; Potency, µM (doses to about 36.5 µM), inactives show top-dose activity change, negative = inhibition, hits mostly inhibitors; hit rate 0.63% among 310,000; active = well fitted inhibition curve with a large enough effect; inconclusive = small, poorly fitted or top-dose-only effect; inactive = no such curve, though single readings can be large or run the other way; tested in A549 cells; also: nearly all actives have a fitted effect of over 35% in size; inactives centre near -10
Vaccinia Venus: qHTS for Stage-Specific Inhibitors of Vaccinia Orthopoxvirus: Venus Reporter Primary qHTS; Vaccinia virus Venus reporter expression, fluorescence; Potency, µM (highest dose often 36.5 µM), inactives show top-dose activity change, negative = inhibition, hits mostly inhibitors; hit rate 0.46% among 330,000; AID 720580, 2013; active means well fitted inhibition curve with a large enough effect; inconclusive means small, poorly fitted or top-dose-only effect; inactive means no such curve, though single readings can be large or run the other way; tested in A549 cells; also: nearly all actives have a fitted effect of over 30% in size; inactives centre near -10
The depositor's hits bear a star; i = inactive; ? = inconclusive; · = not tested or not shown; & = joins results of further samples; [ ] = remark or other dose. % is scaled to controls: 0 for no effect and ±100 for the full control effect; potency is read from the fitted curve at half-maximal effect.

Compound,Vaccinia mCherry,Vaccinia Venus
CCN1CCC(N2CCN(c3ccccc3OC)CC2)CC1,-12.1%,-4.5%
Cc1cc(Cl)ccc1C(=O)C1CCCN(C(=O)c2cscn2)C1 (centres undefined),i,-3.0%
O=C(NNC(=O)c1ccccc1Cl)c1ccccc1Cl,i[7.34 µM],-7.9%[7.34 µM]
CCCCC(=O)Nc1nc(C)c(-c2csc(Nc3ccc(Cl)cc3)n2)s1,?,?
CCc1ccc(NC(=O)C2CCCN(S(=O)(=O)c3cccc4nonc34)C2)cc1 (centres undefined),-11.7%,-10.3%
CCOc1ccc(-c2c(C)n([O-])c3c([n+]2=O)CCCCC3)cc1,0.6%,-5.2%
C=CCn1c(C)cc(C(=O)Cn2ncc(Cl)c(Cl)c2=O)c1C,?,?
Cc1ccnc(NS(=O)(=O)c2ccc(NC(=O)CN3C(=O)c4ccccc4S3(=O)=O)cc2)n1,-3.5%,-1.2%
O=C(Nc1ccn(CCCNCc2ccc3[nH]ccc3c2)c(=O)n1)OCc1ccccc1,?,-1.8%
COc1cccc(-n2c(C)nn(CCOc3ccccc3)c2=O)c1,-5.1%,-2.0%
CC(C)C[C@H](NC(=O)OC(C)(C)C)C(=O)N1CCC(C(=O)N[C@@H](Cc2ccccc2)C(=O)O)CC1,i,-21.9%
O=C(Nc1ccccc1[N+](=O)[O-])c1nc[nH]c1C(=O)NCCO,-24.0%,-19.6%
CCn1c(-c2ccc[nH]c2=O)nc2ccccc21,i,-0.1%
O=C(CCCn1c(=O)[nH]c2cc(Cl)ccc2c1=O)NC1CCCCCCC1,-13.2%,-10.7%
Nn1c(SCC(=O)NC2CCCCCC2)nnc1-c1ccco1,-0.1%,-4.6%
CCN(CC)CCNc1nc(-c2cccs2)c(CC(=O)O)s1,i,-11.7%
CC(C)NS(=O)(=O)c1ccc(NC(=O)C(C)OC(=O)CCCOc2ccccc2)cc1 (centres undefined),-6.1%,0.7%
CN(C)CCN(C)c1cc2c(c3c1ccn3C)C1CCC2O1 (centres undefined),i,-13.7%
COc1ccc(N/C(N)=N/c2nc(C)cc(C)n2)c(OC)c1,-19.3%,-14.1%
COc1ccc(CCN2C(=O)c3ccccc3C2c2nnnn2-c2ccc3c(c2)OCCO3)cc1OC (centres undefined),-2.5%,-3.4%
O=C(Nc1ccc(C(=O)N2CCOCC2)cc1)Nc1cccc(Cl)c1,i,-14.3%
CCCCCn1c(=N)c(S(=O)(=O)c2ccccc2)cc2c(=O)n3ccccc3nc21,-6.4%,-5.7%
O=C(c1ccc(-c2cccc([N+](=O)[O-])c2)o1)N1CCN(c2ccc([N+](=O)[O-])cc2)CC1,-7.4%,-1.8%
O=C(NCC(c1ccc2c(c1)OCO2)N1CCN(c2ccccc2)CC1)c1ccccc1F (centres undefined),-17.2%,-23.5%
CC(C)(C)C1CCSC2=NCCC[C@]2(c2ccccc2)C1 (some centres undefined),13.4%,-9.4%
O=C1NN=C2CCCCCC12 (centres undefined),?,-12.1%
Cc1ccc(NC(=O)CSCC(=O)Nc2cc(Cl)ccc2N2CCOCC2)cc1,-26.7%,-13.3%
Cc1nc2ccc(NC(=O)c3ccc(Cl)c(S(=O)(=O)N(C)c4ccccc4)c3)cc2s1,?,?
Cc1ccc(S(=O)(=O)N2CCOCC2)cc1NC(=O)COC(=O)Cc1ccc(Cl)cc1,-13.0%,-0.6%
COc1ccc(Cl)cc1C(=O)Nc1ccc(NC(C)=O)cc1,-19.9%,-13.3%
CCCCOc1ccc(CNC(=O)NS(=O)(=O)c2ccc(OCC)cc2)cc1,-13.9%,-7.4%
Cc1nn(C)c2c1c(C(F)(F)F)cc(=O)n2C(C)C(=O)NCCC(C)C (centres undefined),-7.3%,-5.9%
O=C(CC(=O)NCc1cccnc1)NCc1cccnc1,-17.3%,-17.0%
COc1ccccc1NC(=O)c1cc(S(=O)(=O)N2CCCCCC2)ccc1F,i,-12.3%
N#C/C(=C\c1ccncc1)c1nc2ccccc2o1,i,12.8%
CCCCN(C(=O)Cc1ccc(S(=O)(=O)N2CCOCC2)s1)c1ccccc1,-12.6%,-10.0%
O=S(=O)(NCC(c1ccco1)N1CCN(c2ccccc2F)CC1)c1ccccc1 (centres undefined),-14.6%,-11.4%
NC(=O)COc1ccc(-c2noc(COc3ccc(Cl)cc3)n2)cc1,-3.3%,3.3%
O=C1OC(C(=O)O)Cc2ccccc21 (centres undefined),-16.1%,-5.9%
Cc1ccc(CNS(=O)(=O)c2cc(C(=O)Nc3ccc(C(C)C)cc3)ccc2F)cc1,-17.4%,-28.4%
C/C(=N\NC(=S)Nc1c(C)cccc1C)c1ccc(OC(F)F)cc1,-17.4%,-3.2%
Cc1ccc(/C=N/c2sc3c(c2C#N)CCC3)s1,·,-13.7%
Nc1nonc1-c1noc(N2CCOCC2)n1,·,-18.2%
Cc1cccn2c(/C=N/OCc3ccc(F)cc3)c(-c3ccc(Cl)cc3)nc12,·,-28.7%
CCOC(=O)N1CCC(NS(=O)(=O)c2ccc(NC(C)=O)c(Cl)c2)CC1,-1.2%,-2.5%

An excerpt of these results, field by field.
CCCCOc1ccc(CNC(=O)NS(=O)(=O)c2ccc(OCC)cc2)cc1
  Vaccinia mCherry = -13.9% | Vaccinia Venus = -7.4%

Cc1nn(C)c2c1c(C(F)(F)F)cc(=O)n2C(C)C(=O)NCCC(C)C (centres undefined)
  Vaccinia mCherry = -7.3% | Vaccinia Venus = -5.9%

O=C(CC(=O)NCc1cccnc1)NCc1cccnc1
  Vaccinia mCherry = -17.3% | Vaccinia Venus = -17.0%

COc1ccccc1NC(=O)c1cc(S(=O)(=O)N2CCCCCC2)ccc1F
  Vaccinia mCherry = i | Vaccinia Venus = -12.3%

(list continues)
Compound,Vaccinia mCherry,Vaccinia Venus
Cc1cccc(C)c1NC(=O)C(c1ccncc1)n1c(=O)c(-c2ccco2)nc2ccccc21 (centres undefined),-18.0%,-18.3%
Cc1ccc(-c2nc3c(Cl)cc(C(F)(F)F)cn3c2Cc2ccccc2C(F)(F)F)cc1,i,15.4%
CCCN1CCN(CCCNC(=O)CN2C(=O)C(CC)Oc3ccccc32)CC1 (centres undefined),i[7.34 µM],-11.5%[7.34 µM]
COc1ccc(OC)c(S(=O)(=O)NCCCN2CCCC2=O)c1,-9.8%,-4.7%
Cc1cccc(NC(=O)COc2ccc(/C=C\c3[nH]c(=O)[nH]c(=O)c3[N+](=O)[O-])cc2)c1,i,-15.2%
Cc1ccc2nc(C)cc(N3CCOCC3)c2c1,·,-14.0%
Cc1cccc(-c2nc(Cn3c(SCc4cccc(C(F)(F)F)c4)nc4ccncc43)c(C)o2)c1,?,?
CN(C)C(=S)NC1(C)CCS(=O)(=O)C1 (centres undefined),·,2.2%
O=C(Nc1ccc(S(=O)(=O)Nc2ccccn2)cc1)c1cccc(Br)c1,-4.8%,-11.6%
O=C(Nc1cccc(S(=O)(=O)N2CCCCC2)c1)c1ccc2c(=O)n3c(nc2c1)CCCCC3,-28.7%,?
O=C(Nc1ccc(Br)cc1)c1cc2nc(-c3ccccc3)cc(-c3ccccc3)n2n1,13.1%,8.3%
O=C(NCC1CCCO1)/C(=C/c1ccc(Cl)cc1)NC(=O)c1ccccc1 (centres undefined),i,1.0%
COc1ccc(C(=O)Nc2ccc(NC(=O)c3ccco3)cc2)cc1,0.6%,-12.7%
Cc1ccccc1N1CCN(C(=O)CCN2C(=O)c3ccccc3C2=O)CC1,i,-13.6%
COc1ccc(Cl)cc1S(=O)(=O)N1CCCC(C(=O)N2CCCC2)C1 (centres undefined),-18.4%,-20.8%

Reprinted at random: 2 records from the list, in no set order.
Compound,Vaccinia mCherry,Vaccinia Venus
COc1ccc(OC)c(S(=O)(=O)NCCCN2CCCC2=O)c1,-9.8%,-4.7%
Cc1cccc(NC(=O)COc2ccc(/C=C\c3[nH]c(=O)[nH]c(=O)c3[N+](=O)[O-])cc2)c1,i,-15.2%

Continued.
Compound,Vaccinia mCherry,Vaccinia Venus
COc1cc(NC(=O)c2nnn(CC(=O)Nc3cc(C)ccc3C)c2N)cc(OC)c1,i,-3.4%
COC(=O)c1ccccc1NC(=O)Nc1ccc(C)cn1,i,-0.9%
O=C(COC(=O)COc1ccc(Cl)cc1)Nc1ccc(N2CCOCC2)cc1,i,-11.8%
N#C/C(=C\c1cccnc1)C(=O)Nc1ccc(C(=O)O)cc1,i,3.8%
CCc1cccc(CC)c1NC(=S)Nc1cccc(Cl)c1Cl,-2.4%[7.34 µM],-8.6%[7.34 µM]
Cc1ccc(Cl)cc1NC(=O)c1oc2ccc(S(=O)(=O)N3CCC4(CC3)OCCO4)cc2c1C,?,-26.1%
COc1cccc(NC(=O)CN(C)C(=O)C2CC(=O)N(CCc3ccc(OC)c(OC)c3)C2)c1 (centres undefined),-12.0%,-0.3%
COC(=O)c1ccccc1NC(=O)c1nc(S(=O)(=O)Cc2cccc(C)c2)ncc1Cl,-25.2%,?
Fc1ccc(CSc2nnc3ccccn23)c(Cl)c1,i,-20.6%
C=C1c2ccc(C)cc2NC(=O)N1c1ccccc1,-13.4%,-15.1%
Cc1ccc(NC(=O)C(NC2CCCC2)c2ccccc2)cc1Cl (centres undefined),-0.3%,-8.1%
COc1ccccc1NC(=O)C/C(N)=N/OCC(=O)Nc1cccc(Cl)c1,-19.3%,-9.0%
COc1ccc([C@H]2CC(=O)C=C(c3cccc(OCc4ccccc4)c3)C2)cc1,-15.7%,-18.2%
CC(C)c1ccc(NC(=O)Nc2csc3c2CCCC3)cc1,-5.5%,-12.1%
O=C1c2[nH]nc(-c3ccccc3O)c2C(c2cccc(Cl)c2)N1Cc1cccnc1 (centres undefined),-6.6%,-14.1%
CSc1nc2ccc(NS(=O)(=O)c3ccccc3F)cc2s1,-12.0%,-8.5%
CCN1CCN(c2ncnc3c2cnn3-c2cc(Cl)ccc2C)CC1,-13.7%,5.0%
Cc1nn(CCC#N)c2[nH]c(=O)cc(C(F)(F)F)c12,-3.0%,-17.8%
CCSCc1nnc(SCC(=O)Nc2ccc(F)cc2)n1CC,-2.5%,0.5%
Cc1cccc(C)c1NC(=O)C(CCc1ccccc1)n1c(=O)c(-c2cc3ccccc3[nH]2)nc2ccccc21 (centres undefined),?,-15.5%
COc1ccc(C(CCc2cc(OC)c(OC)c(OC)c2)NC(C)=O)cc1 (centres undefined),i,5.3%
CCCCCCCCCCCC(=O)NC(Cc1ccc(OC)c([N+](=O)[O-])c1)C(=O)O (centres undefined),-14.3%,-14.0%
O=C(O)CCCC(=O)NS(=O)(=O)c1ccc(Cl)cc1,i,2.3%
COc1ccc(C(=O)NC(=S)NNC(=O)c2ccccc2O)cc1,12.6µM*,?
COc1ccc(Cl)cc1NC(=O)Cn1c(=O)n(CCC(=O)NCc2ccc3c(c2)OCO3)c(=O)c2ccccc21,-27.0%,-22.1%
COc1ccc2[nH]c3c(=O)n4c(nc3c2c1)SCCC4,?,?
CCC(C)Sc1nc2c(cnn2-c2ccc(C)cc2)c(=O)[nH]1 (centres undefined),i,-4.2%
C#CCOCCOCCOCCNc1nc(N2CCN(C(=O)Cn3cc(CC(C)O)nn3)CC2)nc(N2CCN(C(=O)[C@H]([C@@H](C)CC)n3cc(CCCN=C(N)N)nn3)CC2)n1 (some centres undefined),i,-10.4%
CC(=O)Nc1ccc(CCCCc2ccccc2)cc1,?,5.9%
O=C(c1cccc2ccccc12)N1CCN(S(=O)(=O)c2ccccc2)CC1,-2.9%,-6.7%
CC[C@]12c3[nH]c4cc(CCC(=O)N(C)C)ccc4c3CCN1C(=O)[C@@H](CC(=O)NC(C)(C)C)C[C@@H]2C(=O)N1CCN(C(=O)C2CC2)CC1,-14.8%,-8.4%
O=C(CSc1nnnn1C1CC1)Nc1cccc(S(=O)(=O)N2CCCC2)c1,-11.1%,-5.2%
N#Cc1cc([N+](=O)[O-])cnc1Nc1ccccc1,-28.7%,-10.2%
CCCOc1cccc(C(=O)Nc2cccc3cccnc23)c1,-7.3%,-7.6%
Cc1cc(N2CCCC2=O)cc(C)c1S(=O)(=O)NCCOc1ccccc1,-17.1%,-21.7%
COc1ccc(C)cc1NC(=O)CN(C)S(=O)(=O)c1ccc2c(c1)c(=O)n(C)c(=O)n2C,-0.6%,-6.4%&-2.5%
CCCNC(=O)C1CCN(C(=O)N2CC(C)Oc3ccccc32)CC1 (centres undefined),-11.2%,-3.8%
CS(=O)(=O)c1ccc(C(=O)OCC(=O)NC(=O)Cc2ccccc2)cc1,i,-1.3%
C=CCNC(=O)c1nc2ccccc2s1,-13.3%,-14.7%
O=C(CSCc1cnn(-c2ccccc2)c1-n1cccc1)NCc1cccc(Cl)c1,-9.1%,-7.4%
COc1ccc(NC(=O)c2cc(-c3ccc(OC)c(OC)c3)on2)cc1OC,-6.3%,-6.8%
Cc1ccccc1NC(=O)CSc1nc2ncc(Cl)cc2[nH]1,-3.1%[7.34 µM],0.0%[7.34 µM]
CC(C)(C)NC(=O)NC(=O)CN1CCN(c2ccc(O)cc2)CC1,-9.7%,-0.7%
